Bioassay records deposited in PubChem BioAssay by National Center for Advancing Translational Sciences (NCATS).
NS1 inh: influenza NS1 inhibition; S. cerevisiae slowed by influenza A NS1, growth recovery by OD600; Potency, µM (top dose mostly 46.1 µM), for inactives: at the highest dose activity, positive = more growth; 0.4% of 270,000 active; note: actives are rising curves; nearly all actives have a fitted effect of over 50% in size
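S. cerevisiae expressing influenza A NS1, grown in glucose, washed, then diluted 1:100 into pH 6.0 -URA galactose medium with 23 nl compound. Growth recovery read as OD600; NS1-free strain serves as control.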
Cruzain Triton: blocks cruzain activity in presence of Triton detergent; P25779; purified cruzain, Z-FR-AMC fluorescence, 0.01% Triton; Potency, µM, for the others: max response, negative = inhibition, usual class: inhibitors; 0.43% of 200,000 active; AID 1478; active = well fitted curve in the direction sought with a large enough effect; inconclusive = small, poorly fitted or top-dose-only effect, or another doubt; inactive = no such curve, though single readings can be large; an effect the other way counts as inactive or inconclusive;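 note: plate controls were neutral wells for no effect and buffer without enzyme for full effect; nearly all actives have a fitted effect of over 40% in size; top concentration of the series not given in the record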
Target sequence (P25779 123-467 limits assumed): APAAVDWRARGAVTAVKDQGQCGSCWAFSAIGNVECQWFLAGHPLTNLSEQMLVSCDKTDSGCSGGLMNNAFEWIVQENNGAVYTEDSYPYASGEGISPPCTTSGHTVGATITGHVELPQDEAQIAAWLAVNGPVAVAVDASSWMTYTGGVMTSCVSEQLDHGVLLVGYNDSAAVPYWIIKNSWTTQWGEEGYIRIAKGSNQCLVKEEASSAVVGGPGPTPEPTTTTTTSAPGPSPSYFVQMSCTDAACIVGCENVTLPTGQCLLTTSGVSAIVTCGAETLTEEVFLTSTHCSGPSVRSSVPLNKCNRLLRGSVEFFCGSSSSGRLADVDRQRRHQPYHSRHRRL
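Purified cruzain (1.5 nM final) was preincubated with compounds for 15 min at room temperature in 100 mM sodium acetate pH 5.5, 5 mM DTT, 0.01% Triton X-100. Reaction started with 2 uM Z-FR-AMC; AMC fluorescence change over 60 s gave activity.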
SARS PLP yeast: inhibitors of SARS-CoV papain-like protease in yeast; Potency, µM (titrated, usually from 32.9 µM), for the others: top-dose activity, positive = growth rescue; 0.19% of 330,000 active; S. cerevisiae expressing SARS-CoV PLpro, growth rescue; control for the full effect not named in the record; note: 0% is about no effect; nearly all actives have a fitted effect of over 55% in size; growth read by luminescence after 48 h
LASV entry inh: inhibitors of Lassa virus binding or cell entry; Lassa virus pseudotype entry inhibition, cell reporter; control for the full effect not named in the record; 1.2% of 300,000 active; Potency, µM (titrated, usually from 37.9 µM), for inactives: at the highest dose activity change, negative = inhibition, usual class: inhibitors; active means well fitted inhibition curve with a large enough effect; inconclusive means small, poorly fitted or top-dose-only effect, or effect the other way; inactive means flat fitted curve, though single readings scatter; tested in HEK293 cells; note: % is set by controls: 0 for no effect and ±100 for the full control effect; nearly all actives have a fitted effect of over 50% in size; luciferase read-out
RE007 growth inh: less growth of the S. pombe RE007 Vpr strain. 0.21% of 360,000 active. Potency, µM (highest dose often 92.2 µM), inactives show top-dose activity change, negative = less growth. S. pombe RE007 Vpr strain, BacTiter-Glo ATP luminescence, 24 h; control for the full effect not named in the record; active = well fitted falling curve with a large enough effect; inconclusive = small, poorly fitted or top-dose-only effect; inactive = no such curve, though single readings can be large or run the other way;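 note: % is set by controls: 0 for no effect and ±100 for the full control effect; nearly all actives have a fitted effect of over 50% in size; the assay follows cell death caused by Vpr and the record does not say whether a fall means rescue or toxicity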
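Fission yeast RE007 carrying one integrated HIV-1 vpr copy, seeded at OD 0.01 in PMG+AL medium with 23 nL pinned compound. Grown 24 h at 30 degrees; viability read by BacTiter-Glo luminescence after 5 min.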
MARV entry inh: Marburg virus entry inhibition. Potency, µM (doses to about 37.8 µM), for inactives: at the highest dose activity change, negative = inhibition, usual class: inhibitors. 1.8% of 300,000 active. Marburg virus pseudotyped entry inhibition, cell reporter; control for the full effect not named in the record; about a third of the inactives were read at about 46 µM. AID 540276; active = well fitted inhibition curve with a large enough effect; inconclusive = small, poorly fitted or top-dose-only effect, or effect the other way; inactive = flat fitted curve, though single readings scatter; tested in HEK293 cells; about a fifth of its hits are not listed in these tables; note: % is set by controls: 0 for no effect and ±100 for the full control effect; luciferase read-out
2A StopGo: lowers the luciferase signal of an FMDV 2A StopGo reporter; 1.2% of 410,000 active; Potency, µM (highest dose often 57.9 µM), for inactives: at the top dose signal change, negative = less light; human cells with a luciferase reporter of 2A StopGo recoding; control for the full effect not named in the record; AID 1159524; active = well fitted falling curve with a large enough effect; inconclusive = small, poorly fitted or top-dose-only effect; inactive = no such curve, though single readings can be large or run the other way; tested in HEK293T cells; note: % is set by controls: 0 for no effect and ±100 for the full control effect; nearly all actives have a fitted effect of over 45% in size; luciferase light after 4 h
Cruzain inh noDet: cruzain (T. cruzi) inhibition without detergent. purified cruzain, Z-FR-AMC fluorescence, no detergent. Potency, µM, for the others: max response, negative = inhibition, most hits filed as inhibitors. 2.3% of 200,000 active; active = well fitted curve in the direction sought with a large enough effect; inconclusive = small, poorly fitted or top-dose-only effect, or another doubt; inactive = no such curve, though single readings can be large; an effect the other way counts as inactive or inconclusive;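 note: plate controls were enzyme without inhibitor for no effect and buffer without enzyme for full effect; nearly all actives have a fitted effect of over 40% in size; top concentration of the series not given in the record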
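Purified cruzain at 1.5 nM, pre-incubated 15 min with compound at room temperature in 100 mM sodium acetate pH 5.5, 5 mM DTT, 0.00005% Triton X-100. Reaction started with 2 uM Z-FR-AMC; AMC fluorescence increase over 60 s gives rate.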
An asterisk follows results filed as active; ? = inconclusive; / = not tested or not shown; & = joins results of further samples; [ ] = dose if it differs, or a comment. Unless noted, calls come from the whole dose curve; as a rule, active means well fitted rising curve with a large enough effect; inconclusive means small, poorly fitted or top-dose-only effect; inactive means no such curve, though single readings can be large or run the other way. Potency is the fitted concentration of half-maximal effect. The order is random, and some 4.8% of all compounds hit somewhere here.

Every second line gives: NS1 inh | Cruzain Triton | SARS PLP yeast | LASV entry inh | RE007 growth inh | MARV entry inh | 2A StopGo | Cruzain inh noDet
- O=C(NCCN1CCOC1=O)C1CCC(=O)N(CCc2ccc(Cl)cc2)C1 (stereo not given)
  -2% | / | -3% | 1% | -4% | -1% | -8% | /
- Cc1ccc(OCCC(=O)OCC(=O)Nc2ccc3[nH]c(=O)[nH]c3c2)cc1
  / | / | -4% | -1% | 3% | 0% | -8% | /
- Cc1ccc(Cn2c(=N)n(CC(=O)c3ccc([N+](=O)[O-])cc3)c3ccccc32)cc1
  9% | 0.8% | 6% | -21% | -1% | ? | ? | ?
- Cc1cccc(-n2cc(-c3ccccc3)[nH]c2=S)c1
  -8% | / | -2% | -12%[46.1 µM] | 20% | ? | 5% | /
- Fc1ccc(C2CCCN2Cc2nc(Cc3ccccc3)no2)cc1 (stereo not given)
  -6% | / | 0% | / | -3% | / | -14% | /
- CCC1CCc2sc(C(=O)N(C)CC(=O)Nc3cccc(OC)c3)cc2C1 (stereo not given)
  / | / | -2% | 6% | 3% | -5% | -16% | /
- CCOC(=O)c1ccc(NC(=O)CSc2nnc(COc3ccccc3OC)n2CC)cc1
  1% | 2.8% | -2% | -18% | -2% | 1%&1% | -13% | 5%
- Cc1cc2nc(C3CCCN(C(=S)Nc4ccccc4)C3)[nH]c2cc1C (stereo not given)
  12% | 6.3% | 3% | ? | -11% | -5% | / | 11%
- O=S(=O)(Nc1nc2ccccc2nc1Nc1ccc2c(c1)OCO2)c1ccc(F)cc1
  7% | -8.0% | 4% | -28% | 6% | ? | -17% | ?
- COc1ccc(-c2cccc(NS(=O)(=O)c3cccc([N+](=O)[O-])c3)c2)nn1
  / | / | 2% | 5% | -8% | -5%[46.1 µM] | 15% | /
- COc1ccc(C(=O)CC2(O)C(=O)N(Cc3cccc(C(F)(F)F)c3)c3ccccc32)cc1 (stereo not given)
  / | -14% | / | -27%[46.1 µM] | / | ? | ? | 14%
- COc1ccc(CNC(=O)C2CCN(S(=O)(=O)c3c(C)noc3/C=C/c3ccccc3F)CC2)cc1
  / | -1.1% | / | ? | / | / | -5% | -1%
- Cc1csc(NC(=O)c2cn3ccccc3n2)n1
  / | / | -17% | 4µM* | ? | ? | 14µM* | /
- CC(=O)NS(=O)(=O)c1ccc(N=c2ssc3c2-c2cc(C)c(C)cc2NC3(C)C)cc1
  14% | -29% | 4% | ? | -3% | ? | -22% | ?
- CN(C)C(CNC(=O)CNC(=O)c1ccc2ccccc2c1)c1ccccc1 (stereo not given)
  5% | / | 2% | ? | -4% | ? | -2% | /
- C=CCOc1ccc(CNc2ccc3[nH]c(=O)[nH]c3c2)cc1
  0% | / | 0% | 1% | 11% | -13% | -28% | /
- C/C(=N\NC(=O)CSCc1ccc([N+](=O)[O-])cc1)c1ccccc1O
  22% | -2.9% | 26% | ? | -2% | -12% | -2% | -9%
- Cc1ccc(-c2nc3ccccc3c(=O)n2N)cc1
  -10% | / | 1% | / | 4% | / | 13% | /
- COc1c(C(=O)Nc2c(C)n(C)n(-c3ccccc3)c2=O)ccc2ccccc12
  -7% | 1.4% | 1% | 9% | 5% | 12% | 0% | -4%
- O=C(COC(=O)c1ccc(Cl)nc1)NC(=O)c1ccc(OC(F)F)cc1
  / | / | 0% | -5% | -3% | -4%[46.1 µM] | 4% | /
- CC(C(=O)N1CCN(C(=O)c2ccco2)CC1)n1sc2ccccc2c1=O (stereo not given)
  9% | / | 2% | / | 6% | / | 8% | /
- CC(C)c1ccc(CC(NC(=O)c2ccccc2)C(=O)NCC(=O)O)cc1 (stereo not given)
  / | / | -1% | ? | -1% | ? | -3% | /
- CCN(CC(=O)Nc1ccc(NC(C)=O)cc1)C(=O)c1cccc(S(=O)(=O)N2CCCC2)c1
  / | / | 2% | 15% | 9% | -1% | 0% | /
- O=[N+]([O-])c1cn(-c2nc(-c3ccco3)cc(C(F)(F)F)n2)cn1
  -3% | 3.1% | 2% | 8% | -2% | ? | 8% | -23%
- O=C1CCCCC1(c1ccccc1)c1ccccc1
  / | / | / | 9% | -6% | 13% | -23% | /
- O=C(COC(=O)Cc1c[nH]c2ccccc12)NC1CCS(=O)(=O)C1 (stereo not given)
  / | / | 2% | 3%[46.1 µM] | 8% | -3% | 3% | /
- C=CCNC1=C(Cl)C(=O)N(c2cccc(Cl)c2Cl)C1=O
  -56% | -1.8% | -15% | -1% | 4% | 23% | -14% | 5%
- CCCOc1ccc(C2c3c(-c4ccccc4O)n[nH]c3C(=O)N2CCc2ccccc2)cc1OCC (stereo not given)
  / | -2.4% | / | ? | / | ? | -22% | 13µM*
- O=C(CCN1CCCCC1)Nc1cccc(Cl)c1
  4% | 2.8% | 1% | 1% | 21% | 11%&11% | -21% | 1%
- CCCOc1ccc(/C(O)=C2/C(=O)C(=O)N(CCCOC)C2c2ccncc2)cc1 (stereo not given)
  0% | 1.6% | 2% | 3% | -1% | -4% | -3% | -11%
- CC(=O)Nc1cccc(NC(=O)CSc2nc3ccccc3o2)c1
  12% | -4.6% | 12% | 5% | 3% | 14% | -4% | 6%
- Cc1cc(C)nc(N2C(=O)CC(Cc3ccccc3)C2=O)n1 (stereo not given)
  -1% | -0.4% | 1% | -4% | 6% | -16% | 16% | -4%
- COCCCNC(=O)CN(Cc1ccccc1)S(=O)(=O)c1ccccc1
  -6% | / | -1% | / | 1% | / | -9% | /
- Cc1ccc(C(=O)Nc2ccc(S(=O)(=O)NCc3ccco3)cc2)cc1
  -4% | 0.0% | -1% | 22% | 14% | -17% | 86%[activator] | -5%
- O=Cc1cn(CCC(=O)O)nc1-c1cccc2ccccc12
  1% | / | 0% | 29%[46.1 µM] | 13% | 7% | 3% | /
- Cc1[nH]nc2c1C(c1cnn(C)c1)C(C#N)=C(N)O2 (stereo not given)
  / | / | -3% | 0% | 35% | -15%[46.1 µM] | -8% | /
- COC(=O)c1cc(C#N)c(Oc2ccc(OC)cc2)nc1C
  -20% | -4.1% | -1% | 0% | 5% | -20% | -25% | -7%
- CCOc1ccc(NC(=O)Cn2c(=O)n(Cc3nc(-c4ccccc4)no3)c(=O)c3ccccc32)cc1
  / | -0.7% | / | 13%[46.1 µM] | / | / | -12% | 9%
- O=[N+]([O-])c1cccc(-n2nnnc2CN2CCCCCC2)c1
  -10% | 0.7% | -1% | 9% | -5% | 3% | -6% | -4%
- Cc1ccc(Cl)cc1N1CCN(C(=O)c2ccc(C)c(-n3c(C)nc4cccnc43)c2)CC1
  / | -4.3% | / | ? | / | / | ? | ?
- Oc1ccc(N=Cc2sc3ccccc3c2Cl)cc1
  8% | -11% | 12% | ? | ? | -4% | 17% | -10%
- CCN(CC)C(=O)c1cc(-c2ccc3c(c2)OCO3)on1
  1% | / | 1% | ? | -6% | ? | 24% | /
- Cc1ccc(C)c(N2CCN(C(=O)c3cccn3-c3nnc(N4CCCCC4)s3)CC2)c1
  / | -2.6% | / | -16%[46.1 µM] | / | / | -2% | -6%
- CCN(CC)CCOc1nnc(-c2ccc(OC)cc2)c2ccccc12
  3% | / | -1% | / | -8% | / | 11% | /
- Clc1ccsc1-c1csc(-c2cccnc2)n1
  -160% | -14% | -18% | -8% | -29% | ? | -9% | 4%
- CC(C)CN1CCC(=O)N(CCOc2ccccc2)CC1
  9% | / | -3% | / | -3% | / | 52%[activator] | /
- CCN(C(=O)COC(=O)CNC(=O)c1sc2ccccc2c1Cl)C1CCCCC1
  / | / | 1% | ? | 14% | 20% | 4% | /
- CC1CC(C)CN(c2oc(-c3ccco3)nc2C#N)C1 (stereo not given)
  -26% | -4.6% | 17% | -4% | 1% | 0% | -4% | -5%
- COc1cccc(CNC(=O)c2ccc3c(c2)c(C)c(C)n3Cc2ccccc2)c1OC
  / | 0.1% | / | ? | / | / | -5% | ?
- CCCCn1c(=N)n(CCOc2ccc(C)cc2)c2ccccc21
  -16% | 0.5% | 1% | ? | 30% | ? | ? | 16%
- CCCc1cc(=O)[nH]c(SCC(=O)c2cc(C)n(CCC)c2C)n1
  ? | 3.1% | 6% | 11% | -6% | 21% | -8% | -4%
- COc1ccc(NC(=O)c2ccc3ccccc3n2)cc1S(=O)(=O)Nc1ccccc1Cl
  20% | -2.0% | ? | -11% | 5% | -18% | 51%[activator] | 13µM*
- COCCNC(=O)C(=O)Nc1cccc(Br)c1
  -7% | -0.5% | -1% | 18% | -6% | 21% | / | -5%
- CC1=CC(C)C(COC(=O)CN2CCCCC2)C(C)C1 (stereo not given)
  1% | / | 1% | -2% | -6% | 3% | 8% | /
- CN1CCc2nc3sc(C(=O)NCc4ccccc4)c(N)c3cc2C1
  -3% | / | 0% | / | -15% | / | 3% | /
- CC(=O)c1ccc(N2CCN(C(=O)c3nn(C)c4c3CS(=O)(=O)c3ccccc3-4)CC2)cc1
  0% | / | 11% | ? | -11% | ? | ? | /
- O=C(CSc1nnnn1C1CCCCC1)N1CCc2ccccc21
  5% | -1.3% | -2% | 0% | 8% | -1% | / | -21%
- COc1cccc(-c2nc(SCC(=O)NCC3CCCO3)c(-c3ccc(F)cc3)[nH]2)c1 (stereo not given)
  / | 2.5% | / | -2%[46.1 µM] | / | -29%[46.1 µM] | -9% | 15%
- O=C(CNC(=O)c1ccccc1F)OCC(=O)c1ccc(Cl)s1
  5% | / | -5% | -12%[46.1 µM] | 0% | 17%[46.1 µM] | -2% | /
- CCn1c(-c2sc(-c3ccccc3)nc2C)n[nH]c1=S
  -7% | / | 5% | -17% | 19% | -13%[46.1 µM] | -7% | /
- O=C1C(C=NCc2ccco2)=C(O)c2ccccc21
  -11% | -8.0% | 1% | -16% | 15% | -6% | -12% | -4%
- CCn1c(SCC(=O)Nc2ccccc2)nnc1C1CCCCC1
  -2% | 1.0% | -16% | 1% | -2% | ? | -6% | -9%
- O=C(Nc1cccc(NC(=O)c2ccccc2[N+](=O)[O-])n1)c1ccccc1[N+](=O)[O-]
  -7% | -3.5% | 1% | 2% | -16% | 6% | -16% | ?
